Mtb hypoxia rep: Mtb hypoxia fluorescent reporter inhibition; M. tuberculosis hypoxia-regulated fluorescent reporter, fluorescence; fluorescence inhibition, % (test concentration not listed); hit rate 0.1% among 300,000; AID 1159583;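 active = 35 to 45% if threefold the growth effect, above 45% if 1.5-fold the growth effect; inactive = the rest, general growth blockers included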;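 note: wells of about 50 µL received 100 nL stock; 0% = vehicle wells and 100% = reference inhibitor wells; whole bacteria with a GFP reporter of the hypoxia response; strong numbers were not always called active; many hits fall short of the cut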
Sa ugtP lethal: kills S. aureus RN4220 lacking UgtP; S. aureus RN4220 ugtP deletion, OD600 growth, 16 h; some inactives read as strong as hits; growth inhibition, % (no concentration beside the values); hit rate 0.54% among 330,000; AID 1259309;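 active = z-score under -3 and OD600 up to 0.15 on both plates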;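 note: plate controls were untreated wells for no effect and antibiotic for full effect; wells of about 80 µL received 100 nL stock; the first replicate is given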
RN4220 kill: kills Staphylococcus aureus RN4220. S. aureus RN4220 growth, OD600, 16 h. inhibition, % (no concentration beside the values). hit rate 0.33% among 330,000;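 active = z-score of -3 or lower and OD600 up to 0.18 on both plates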;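 note: plate controls were untreated cells for no effect and reference antibiotic for full effect; stock transfer was 100 nL into about 80 µL; one replicate is shown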
Autofluor counter: counter-screen for toxin protease inhibitors: compound fluorescence. fluorescence intensity (test concentration not listed). hit rate 3.1% among 360,000. compound autofluorescence counterscreen, microsphere flow cytometry; active compounds read high. AID 624483;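 active = at least 3 SD above the mean of all compounds, about 16000 in these data; inconclusive = too few beads counted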;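 note: 100 nL of 1 mM stock went into each well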
PrP UTR inh: inhibition of PrP 5' UTR reporter expression; cell-based PrP 5' UTR mRNA reporter, plate reader; AID 488862; inhibition, % (test concentration not listed); hit rate 0.35% among 340,000;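 active = every replicate at 50% or more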;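 note: 0 = median of the neutral control wells; tested in H4 reporter cells; numbers are from one replicate; inactives centre near -14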
BJeLR viability: BJeLR cell viability loss. BJeLR (HRASV12) viability, CellTiter-Glo ATP luminescence, 48 h; reference of the scale not given here. inhibition, % (test concentration not listed). hit rate 0.17% among 300,000;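 active = replicate mean above 50%; inconclusive = above 50% but judged a plate artefact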;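 note: 50 nL library stock added to about 25 µL; numbers are from one replicate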
Mtb hypoxia rep growth: second read-out of Mtb hypoxia rep, no call of its own (marks repeat the call); growth inhibition, %; measured here: M. tuberculosis growth (absorbance);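 0% = vehicle and 100% = reference antibiotic; read after six days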
* hit, by the source's call; ? = inconclusive; . = no result given. Not a hit list (roughly 4% active in at least one column).

SMILES	Mtb hypoxia rep	Mtb hypoxia rep growth	Sa ugtP lethal	RN4220 kill	Autofluor counter	PrP UTR inh	BJeLR viability
COc1ccccc1NC(=O)Cn1nnc(-c2ccccc2NC(=O)c2cccs2)n1	9	0	-10	2.6	3019	-1	7
CCOc1ccc(Br)cc1C(=O)N/N=C/c1c[nH]c2ccccc12	.	.	.	.	2829	-4	5
OC(COc1ccc2cc(Br)ccc2c1)CN1CCN(c2ccccn2)CC1 (stereo not given)	.	.	-6	-3.3	3931	-25	-6
O=C(CN1CCN(c2ccc(O)cc2)CC1)NCC(=O)Nc1ccc(F)c(F)c1F	2	-1	-3	0.8	2994	1	.
Cc1ccnc(N2C(=O)c3ccccc3C2=O)c1	6	-3	10	0.9	3249	2	-2
Cc1ccc(NC(=O)Cn2nnc(C(=O)Nc3ccc(C)c(C)c3)c2N)cc1	5	3	6	0.7	6066	-14	5
CC12CCC(=O)N1C(C(=O)OCC(=O)Nc1cc(S(=O)(=O)N3CCCCC3)ccc1Cl)CS2 (stereo not given)	-2	0	3	-0.6	2580	-11	-3
CCOC(=O)CSc1nnc(CNc2cccc(Cl)c2)n1-c1ccccc1	4	10	-3	4.0	3221	-12	11
CCOC(=O)C(C)Sc1nc2c(c(=O)[nH]c(=O)n2C)n1CCc1ccccc1 (stereo not given)	.	.	9	4.5	2122	-1	.
CCCCN(C(=O)CC1CCCCC1)c1c(N)n(CC(C)C)c(=O)[nH]c1=O	2	-1	5	1.5	3555	-10	.
Cc1ccc(S(=O)(=O)NC(C)C(=O)Nc2ccc(C(N)=O)cc2)cc1 (stereo not given)	.	.	6	0.1	3118	-18	0
O=c1oc2ccccc2c2c1ncn2-c1ccccc1	2	8	7	2.9	10783	-15	3
CCOC(=O)Cc1cc(=O)n2[nH]c(C)c(-c3ccc(OC)cc3)c2n1	.	.	8	5.1	2184	-13	6
COc1ccc(NC(=O)CN(c2ccccc2)S(=O)(=O)N(C)C)cc1Cl	4	3	4	5.1	3897	-17	-3
CC(=O)/C=C\c1ccc(OC(=O)c2cccnc2)cc1	20	11	4	5.9	3850	-23	1
COc1ccccc1OCCOc1ccc(C(=O)c2ccccc2)cc1	0	3	13	0.2	2079	-19	-6
CC(OC(=O)CCN=C1NS(=O)(=O)c2ccccc21)C(=O)Nc1ccc(F)cc1Cl (stereo not given)	7	13	11	3.8	5075	-18	5
Cc1cc(N2CCOCC2)ccc1/C=C1\C(=O)NC(=O)N(c2ccccc2)C1=O	-1	11	6	6.1	2677	-14	6
CCOc1ccc(CCNC(=O)Cn2ccc3cc(S(=O)(=O)N4CCCC4)ccc32)cc1	-14	-5	-5	-1.8	6156	4	5
O=C(Nc1sc2c(c1C(=O)O)CCC2)c1cccs1	.	.	.	.	3129	-24	0
Cc1cc(C)nc(SCc2ccc(C(=O)NN=Cc3cccnc3)cc2)n1	-9	5	-3	-0.3	.	.	.
CS(=O)(=O)Nc1cccc(C2=NN(S(C)(=O)=O)C(c3ccccc3)C2)c1 (stereo not given)	15	2	-8	24	4585	-32	8
Cn1c(O)c(N=Nc2cccc(S(=O)(=O)N3CCOCC3)c2)c(=O)n(C)c1=O	13	7	7	5.7	2101	-33	-2
COC(=O)[C@]1(Cc2ccccc2)N[C@H](CN(C)C(=O)Nc2ccc(F)cc2)[C@@H]2C(=O)N(Cc3ccccc3)C(=O)[C@@H]21	-4	-1	-4	-1.7	3939	-26	.
CC(C)C1Nc2ccc(C(=O)O)cc2C2C=CCC21 (stereo not given)	6	13	5	10	4236	-68	11
CCOCCCNC(=O)C1CCN(S(=O)(=O)c2ccc3nc4c(c(C(=O)O)c3c2)CCCCC4)CC1	7	12	6	1.4	5211	-29	4
CCc1cc2c(=O)n(CC(=O)NC3CCCCC3)cnc2s1	5	7	-4	0.8	5504	4	-6
COCCNC(=O)/C(C#N)=C/c1ccc(-c2ccc(OC)cc2[N+](=O)[O-])o1	.	.	.	.	2963	-9	7
Cc1ccccc1-n1c(C)cc(/C=C2/C(=N)N3C(c4ccccc4)=CSC3=NC2=O)c1C	-1	-7	27	-3.3	7409	-5	0
COCC(=O)NN=Cc1ccccc1OC/C=C/c1ccccc1	0	-3	1	4.9	.	.	.
Oc1c(C(c2ccccc2)N2CCCCC2)sc2ncnn12 (stereo not given)	-5	16	4	20	5364	6	6
CC(=O)Nc1nc2ccc(NC(=O)c3ccco3)cc2s1	.	.	-1	2.6	4178	-37	1
COc1ccccc1NC(=O)COc1ccc(C=Nn2cnnc2)cc1OC	12	11	7	5.8	.	.	.
COc1cc2c(cc1NC(=O)COC(=O)[C@@H](NS(=O)(=O)c1cccc(Cl)c1)C(C)C)oc1ccccc12	-8	-6	-21	-1.0	2695	-19	1
CCCCNC(=O)N(O)C1N(N=Cc2ccccc2O)C(=S)SC1(C)C (stereo not given)	9	7	2	4.2	.	.	.
O=C(NCCCn1ccnc1)C(=O)NCC(c1ccco1)N1CCN(c2ccc(F)cc2)CC1 (stereo not given)	11	10	3	2.6	5404	-14	4
CCOc1ccc(S(=O)(=O)N2CCC(C(=O)N3CCc4ccccc4C3)CC2)cc1	6	4	9	3.7	6809	-23	8
CC(C)Cc1nc(SCC(=O)N2CC(C)OC(C)C2)c2c(=O)n(C)c(=O)n(C)c2n1 (stereo not given)	2	0	8	3.1	4666	-6	-3
O=C(COC(=O)/C=C/c1ccccc1)NCC1CCCO1 (stereo not given)	17	8	7	7.0	4448	-7	-24
Fc1ccccc1COc1ccccc1CNCc1ccncc1	13	6	1	9.6	5618	-29	-1
COc1ccc(OCCSc2ncn[nH]2)cc1	11	4	10	4.6	9607	-28	-1
COc1ccc(C=N/N=C2/NC(=O)CC(C(=O)O)S2)cc1 (stereo not given)	4	6	4	-1.0	.	.	.
O=C(Nc1ccccc1N1CCOCC1)c1ccc(Cl)nc1	6	0	-14	5.1	3359	-18	-1
O=C(CN1CCOCC1)NN=C/C=C/c1ccccc1	-8	-6	1	-0.3	.	.	.
c1ccc2sc(N3CN(CCN4CCOCC4)CN(c4nc5ccccc5s4)C3)nc2c1	5	6	10	1.8	6748	2	-1
CC(C)N(CCNC(=O)C1CCN(S(=O)(=O)N2CCOCC2)CC1)Cc1ccccc1	7	5	-3	-11	3046	-20	-2
Cc1ccc(C(=O)NCCc2cc3ccc(C)c(C)c3[nH]c2=O)cc1[N+](=O)[O-]	3	-6	7	7.5	2265	-7	15
CCOC(=O)C(C)(C)N(Cc1ccc(Cl)cc1)S(=O)(=O)c1ccc(Cl)c([N+](=O)[O-])c1	2	5	65	7.6	.	.	-3
COc1cc2oc3ccc(C#Cc4ccc(N)cc4)cc3c(=O)c2cc1OC	16	9	13	1.3	3893	-19	4
Cc1ccc(S(=O)(=O)N2CCCC2CNC(=O)C(=O)Nc2ccc(F)cc2)cc1 (stereo not given)	-10	0	-1	-3.6	?	-18	-9
Nc1nc(N2CCOCC2)cc(=O)[nH]1	16	11	1	-5.3	3691	-10	3
CC(=O)c1ccc(NC(=O)COc2ccccc2C(=O)Nc2ccccc2)cc1	7	7	2	0.4	5439	-7	-1
COc1ccc(NC(=O)c2ccc(COc3ccccc3)o2)cc1	8	7	17	6.8	6886	-22	-2
CN(CC(=O)Nc1cc(S(=O)(=O)N2CCCCCC2)ccc1Cl)Cc1ccc2c(c1)OCO2	6	13	-5	-7.5	6458	-8	.
Cc1ccc(-n2[nH]c(C)c(/C=C3/C=Nc4ccccc43)c2=O)cc1C	.	.	.	.	4818	-29	-1
COc1cc(C=NNC(=O)Cn2cnc3c2c(=O)n(C)c(=O)n3C)ccc1O	11	9	2	1.5	.	.	.
CCCC(C)NC1=NCCCCC1 (stereo not given)	-3	7	15	7.3	7967	-15	3
C=CCN1C(=O)/C(=C/c2ccc(O)c(OC)c2)SC1=Nc1nccs1	-13	-2	-17	-6.3	.	.	.
COc1ccc(C(=O)N/C(=C\c2ccco2)C(=O)NC2CCS(=O)(=O)C2)cc1 (stereo not given)	.	.	.	.	2603	-6	-1
Cc1cccc(NC(=S)NNC(=O)c2nn(C)cc2Cl)c1	.	.	-1	-1.3	3942	-23	-3

Compounds listed so far that have a COOH group:
SMILES	Mtb hypoxia rep	Mtb hypoxia rep growth	Sa ugtP lethal	RN4220 kill	Autofluor counter	PrP UTR inh	BJeLR viability
O=C(Nc1sc2c(c1C(=O)O)CCC2)c1cccs1	.	.	.	.	3129	-24	0
CC(C)C1Nc2ccc(C(=O)O)cc2C2C=CCC21 (stereo not given)	6	13	5	10	4236	-68	11
CCOCCCNC(=O)C1CCN(S(=O)(=O)c2ccc3nc4c(c(C(=O)O)c3c2)CCCCC4)CC1	7	12	6	1.4	5211	-29	4
COc1ccc(C=N/N=C2/NC(=O)CC(C(=O)O)S2)cc1 (stereo not given)	4	6	4	-1.0	.	.	.

Later entries.
SMILES	Mtb hypoxia rep	Mtb hypoxia rep growth	Sa ugtP lethal	RN4220 kill	Autofluor counter	PrP UTR inh	BJeLR viability
Cc1cc(NC(=O)C(C)SCC(=O)N(C)CC(=O)Nc2ccc(Br)cc2C)no1 (stereo not given)	17	-8	11	-0.5	5805	-15	-10
O=S(=O)(NCc1ccco1)c1ccc2ccccc2c1	12	-4	-2	3.4	4273	-4	1
CC(=O)c1c(C)n(Cc2ccccc2Cl)c2ccc(O)cc12	4	15	0	4.5	4222	-24	7
O=C(c1ccccc1[N+](=O)[O-])N1CCC(Cc2ccccc2)CC1	2	9	6	1.8	22923*	-48	3
CS(=O)(=O)Nc1ccc(-c2n[nH]c(=S)n2-c2ccccc2)cc1	-1	4	-8	-3.1	9132	-13	-7
COc1ccc(CNC(=O)CCCCCn2c(SCC#N)nc3cc4c(cc3c2=O)OCO4)cc1	-9	-11	-7	-1.0	19698*	-10	7
CCC1CN(C(=O)N2CCC(C(=O)NCCc3ccccc3)CC2)c2ccccc2O1 (stereo not given)	8	-4	5	-1.7	4856	-16	4
CC(=O)O/N=C/c1c(N2CCOCC2)n(C)c2ccccc12	.	.	.	.	23889*	-30	-1
O=CNCCCc1nc2ccccc2n1CCc1ccccc1	0	-4	-7	-1.0	3479	-12	0
O=C(c1cc(F)c(F)c(F)c1F)N1CCN(C(=O)C2CCCO2)CC1 (stereo not given)	1	2	2	1.6	4185	7	.
CCN(CC)c1ccc(/C=N/NC(=S)NCc2ccccc2)cc1	.	.	.	.	4753	-7	-5
CC(=O)Oc1ccc2c(=O)c(-c3ccccc3)coc2c1	4	9	5	12	4657	-69	3
CC(C)Cn1c(-c2cc([N+](=O)[O-])ccc2Cl)nc2c1c(=O)[nH]c(=O)n2Cc1ccccc1	1	12	-7	-2.0	2458	-6	7
CCCCNC(=O)CNC(=O)c1nn(-c2ccc(OC)cc2OC)c(=O)c2ccccc12	17	4	8	4.2	4209	-17	-3
Cc1nc(C)c(C(=O)Nc2cccc(Cl)c2)o1	-3	15	-4	2.4	11479	-12	-3
CC(C)(C)OC(=O)N/N=C\c1cccnc1	.	.	.	.	3223	-14	4
NS(=O)(=O)c1ccc(CCNC(=O)CCCNC(=O)c2ccc(Cl)cc2)cc1	-4	0	9	0.6	4006	-22	-12
O=C(Nc1ccccc1)Nn1cnnc1	6	-7	3	2.8	3646	-15	3
COc1ccc(/C=N/NC(=S)Nc2ccccc2)cc1COc1cccc(C)c1C	.	.	.	.	4946	-14	9
COc1ccc(-c2nn(-c3ccccc3)cc2C(=O)NC2CCC(C)CC2)cc1 (stereo not given)	6	0	8	3.1	5876	-24	1
CCOC(=O)Cn1nc(-c2ccc(F)cc2)oc1=O	.	.	.	.	3293	-8	-3
O=C(Nc1nccs1)C(c1ccccc1)N1CCCCC1 (stereo not given)	11	2	0	-1.5	4494	-2	3
COCCCn1c(SCC(=O)n2c(C)c(C)c3ccccc32)nnc1-c1ccoc1C	.	.	5	1.0	2925	-14	5
CC(CC(=O)O)CC(=O)Nc1ccccc1C(=O)O (stereo not given)	3	13	-1	0.6	22711*	10	-2
c1ccc(Nc2cc(Nc3ccccc3)[nH]n2)cc1	20	10	-12	3.2	11654	-30	-4
N#Cc1nc(-c2cccs2)oc1N1CCN(Cc2ccccc2)CC1	4	2	17	10	9620	0	-18
CN1CCCC1CCNc1ccc2oc3ccccc3c(=O)c2c1 (stereo not given)	12	9	-2	0.9	.	.	-4
O=C(NNC(=O)c1ccc(Cl)c([N+](=O)[O-])c1)c1ccncc1	10	3	4	-0.2	3051	-19	-4

Source: PubChem BioAssay (several laboratories)
